Bead autofluor: counter-screen for toxin protease inhibitors: compound fluorescence. compound autofluorescence counterscreen, microsphere flow cytometry; hits give high values. fluorescence intensity (no concentration beside the values). hit rate 3.1% among 360,000. AID 624483;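 active = at least 3 SD above the mean of all compounds, about 16000 in these data; inconclusive = too few beads counted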;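 note: 100 nL of 1 mM stock went into each well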
Mtb hypoxia rep: inhibitors of hypoxia-regulated fluorescent reporter in Mycobacterium tuberculosis | M. tuberculosis hypoxia-regulated fluorescent reporter, fluorescence | AID 1159583 | fluorescence inhibition, % (no concentration beside the values) | hit rate 0.1% among 300,000;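 active = 35 to 45% if threefold the growth effect, above 45% if 1.5-fold the growth effect; inactive = the rest, general growth blockers included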;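 note: wells of about 50 µL received 100 nL stock; 0% = vehicle wells and 100% = reference inhibitor wells; whole bacteria with a GFP reporter of the hypoxia response; strong numbers were not always called active; many hits fall short of the cut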
Sa ugtP lethal: kills S. aureus RN4220 lacking UgtP; growth inhibition, % (no concentration beside the values); S. aureus RN4220 ugtP deletion, OD600 growth, 16 h; some inactives read as strong as hits; hit rate 0.54% among 330,000;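 active = z-score under -3 and OD600 up to 0.15 on both plates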;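 note: plate controls were untreated wells for no effect and antibiotic for full effect; wells of about 80 µL received 100 nL stock; the first replicate is given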
Sa RN4220 lethal: kills Staphylococcus aureus RN4220; S. aureus RN4220 growth, OD600, 16 h; inhibition, % (test concentration not listed); hit rate 0.33% among 330,000;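 active = z-score of -3 or lower and OD600 up to 0.18 on both plates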;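 note: plate controls were untreated cells for no effect and reference antibiotic for full effect; stock transfer was 100 nL into about 80 µL; one replicate is shown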
BJeLR lethal: BJeLR cell viability loss; BJeLR (HRASV12) viability, CellTiter-Glo ATP luminescence, 48 h; reference of the scale not given here; inhibition, % (test concentration not listed); hit rate 0.17% among 300,000;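 active = replicate mean above 50%; inconclusive = above 50% but judged a plate artefact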;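 note: 50 nL library stock added to about 25 µL; numbers are from one replicate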
PrP 5UTR inh: inhibition of PrP 5' UTR reporter expression | inhibition, % (no concentration beside the values) | cell-based PrP 5' UTR mRNA reporter, plate reader | hit rate 0.35% among 340,000;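 active = every replicate at 50% or more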;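 note: 0 = median of the neutral control wells; tested in H4 reporter cells; numbers are from one replicate; inactives centre near -14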
Mtb hypoxia rep growth: recorded beside Mtb hypoxia rep, whose call it bears; growth inhibition, %; measured here: M. tuberculosis growth (absorbance);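 0% = vehicle and 100% = reference antibiotic; read after six days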
Active calls of the source: *; ? = inconclusive; / = no result given.

SMILES	Bead autofluor	Mtb hypoxia rep	Mtb hypoxia rep growth	Sa ugtP lethal	Sa RN4220 lethal	BJeLR lethal	PrP 5UTR inh
CCCOc1ccc(C(C)=O)cc1CSc1nc(O)cc(=O)[nH]1	2551	0	4	-11	-2.6	-1	-1
COC(=O)CC(NS(=O)(=O)c1cccs1)c1ccccc1Cl (configuration not stated)	3936	11	13	0	12	1	-4
N#C/C(=C/c1ccc([N+](=O)[O-])cc1)C(N)=O	3244	/	/	/	/	-8	-6
O=C(c1ccc2c(c1)OCO2)N(Cc1cccs1)C1(C(=O)NC2CCCCC2)CCCCC1	2648	7	3	-10	9.3	-3	-25
COc1cccc(N2CCN(C(=O)CCCCCNc3nc(=S)[nH]c4ccccc34)CC2)c1	3999	1	9	-1	-0.4	8	-22
O=C(NCC1CCCO1)C(=O)N/N=C/c1cccc(Cl)c1 (configuration not stated)	4527	/	/	/	/	-1	-8
COc1cc(/C=C2\SC(N)=NC2=O)cc(Cl)c1O	3108	12	9	-1	2.6	-13	-19
CCC(O)(CC)C(=O)NN=Cc1cc(Br)cc(Br)c1O	/	11	10	15	-12	/	/
COC(=O)CNC(=O)COC(=O)c1cc(Cl)cc(Cl)c1N	4153	2	1	-5	3.9	-15	-1
COC(=O)[C@]1(CC(C)C)NC(c2ccc(-c3ccc4c(c3)OCO4)cc2)C2C(=O)N(C)C(=O)C21 (some centres not stated)	/	-1	2	38	20	/	/
CC1CCN(C(=O)CNC(=O)Cn2ccc3ccccc3c2=O)CC1	5254	0	7	11	0.2	-2	-15
COc1ccc(NC(=O)CCOc2ccc(C)cc2)cc1S(=O)(=O)N1CCOCC1	3717	10	1	4	4.8	/	-40
CCn1c(N2CCN(Cc3ccc([N+](=O)[O-])cc3)CC2)nc2ccccc21	3963	8	2	14	5.3	0	3
O=C(NCCN1CCN(c2ccccc2F)CC1)C1c2ccccc2C(=O)N2CCc3ccccc3C12 (configuration not stated)	4155	/	/	7	-0.4	-5	-11
CC/C(=N\NC(=O)CSCc1ccccc1Cl)c1ccc2c(c1)OCCO2	2101	/	/	/	/	-1	2
CCCOc1ccc(CNC(=S)N/N=C/c2ccc([N+](=O)[O-])cc2)cc1	15948	/	/	/	/	-6	-7
CCN(CC)S(=O)(=O)c1cc(C(=O)Nc2ccccc2C(=O)O)ccc1OC	10256	13	2	-3	4.7	-9	3
OC(CNc1ncnc2sccc12)c1ccccc1 (configuration not stated)	5827	-8	4	-4	3.5	8	-48
COc1ccc(C2(c3ccc(OC)cc3)NC(=O)N(CC(=O)N(C)c3ccccc3)C2=O)cc1	6195	-5	4	2	-1.4	-2	-19
COC(=O)CC1=C(C(=O)OC)C2(C(=O)Nc3c(C)cccc32)C(C#N)=C(N)O1 (configuration not stated)	20727*	0	8	95*	97*	-2	-11
O=S(=O)(NN=Cc1ccc2c(c1)OCCO2)c1ccc(Cl)cc1	/	2	7	4	2.4	/	/
O=C(O)/C=C/c1cn(-c2ccccc2)nc1-c1cc2ccccc2o1	5714	4	7	16	19	-3	-3
Cc1csc(=O)n1CCC(=O)OCC(=O)c1c(N)n(C)c(=O)n(C)c1=O	4288	-7	-5	-2	-1.5	6	-17
O=[N+]([O-])c1ccc(Cl)cc1NCCCN1CCOCC1	2577	8	2	-2	2.9	/	-26
COc1ccc(N2CCN(C(=O)CCC(=O)N3CC(C)Oc4ccc(C)cc43)CC2)cc1 (configuration not stated)	6097	6	3	-1	-9.4	-8	-18

Limited to Sa RN4220 lethal, for some of the entries so far:
| smiles | Sa RN4220 lethal |
| --- | --- |
| O=S(=O)(NN=Cc1ccc2c(c1)OCCO2)c1ccc(Cl)cc1 | 2.4 |
| CCCOc1ccc(C(C)=O)cc1CSc1nc(O)cc(=O)[nH]1 | -2.6 |
| O=C(O)/C=C/c1cn(-c2ccccc2)nc1-c1cc2ccccc2o1 | 19 |

Further structures follow:
SMILES	Bead autofluor	Mtb hypoxia rep	Mtb hypoxia rep growth	Sa ugtP lethal	Sa RN4220 lethal	BJeLR lethal	PrP 5UTR inh
N#C/C(=C(/O)C(Cl)c1ccccc1)c1nc2ccccc2s1 (configuration not stated)	8912	-2	5	-8	-1.8	-7	-40
COc1cc(C(=O)Oc2ccccc2C=NNC(=O)c2ccc(Cl)cc2Cl)cc(OC)c1OC	/	4	5	3	3.2	/	/
Cc1nc(NC(=O)CC(C)C)sc1-c1csc(Nc2ccc(Cl)cc2Cl)n1	2819	/	/	/	/	-6	-4
Cc1nnc(SCC(=O)Nc2ccc(N(C)C)cc2)n(N)c1=O	4119	8	1	2	1.1	-7	-9
CCC(C)NC(=O)Cn1c(=O)n(CCCC(=O)NCc2ccccc2Cl)c(=O)c2ccccc21 (configuration not stated)	3982	10	10	-4	6.2	-9	-18
O=C(O)c1ccc(-c2noc(-c3ccccc3C(F)(F)F)n2)cc1	3036	3	3	5	6.7	-9	-31
COc1ccc(CCNC(=O)c2ccc(CS(=O)Cc3ccc(C)cc3)o2)cc1OC (configuration not stated)	6079	0	1	10	4.0	20	-6
Cc1ccccc1NC(=O)CSc1nnc(Cc2cccn2C)n1-c1ccc(F)cc1	6267	/	/	2	0.9	7	-13
Cc1ccc(NC(=O)Nn2cnnc2)cc1Cl	5226	4	-5	4	1.5	12	-12
COc1ccc(/C=N/Nc2nc(-c3ccc(Cl)cc3)cc(C(F)(F)F)n2)cc1OC	2232	/	/	/	/	0	-30
COc1cc(NC(=O)C2CC2)c(OC)cc1NC(=O)c1ccco1	5855	4	3	-9	0.0	1	9
COc1cc(/C=N/Nc2nc(C)cc(=O)[nH]2)cc(OC)c1O	3493	/	/	/	/	0	-15
COc1ccccc1NCC(=O)N/N=C/C=C/c1ccccc1	2526	/	/	/	/	0	-40
CC(C)(C)c1ccc(S(=O)(=O)N2CC3CC(C2)c2cccc(=O)n2C3)cc1 (configuration not stated)	7990	0	4	6	3.7	10	-20
O=C(CSc1ccccc1)Nc1ccc2sccc2c1	5495	1	-2	2	-2.5	6	-29
Cc1nc2c(C)cccn2c1C(=O)NN=Cc1ccccc1[N+](=O)[O-]	/	-2	6	8	2.5	/	/
C=CCn1c(SCC(=O)Nc2ccccc2-c2ccccc2)nc2cc(C(=O)O)ccc2c1=O	4495	0	6	9	8.5	1	-2
O=c1c(-c2ccccc2Cl)coc2c(CN3CCCCC3)c(O)ccc12	3425	-6	5	-12	-2.1	3	0
Fc1ccc(N2CCN(Cc3ccc4c(c3)OCO4)CC2)cc1	22760*	11	7	1	8.9	2	-20
COc1ccccc1C(=O)NCCC(=O)Nc1ccc(S(=O)(=O)N2C(C)CCCC2C)cc1 (configuration not stated)	4001	4	12	1	5.1	/	-11
Cc1ccc(C(=O)NCCCn2ccnc2)cc1C	2967	6	4	0	4.7	-4	/
COc1ccccc1C(=O)Nc1ccc(Nc2ccccc2)cc1	4352	5	6	6	3.9	-3	/
COc1ccc(-c2nnc(SCC(=O)NC3CCCC3)n2C)cc1	3498	1	6	4	-1.3	5	-11
Cc1ccccc1/C=N/N1CCN(c2ccccc2)CC1	10672	/	/	/	/	11	-54
COC(=O)c1ccc(COc2cc(O)c3c(c2)OC(C)(C)CC3=O)cc1	2347	15	8	5	9.2	4	-38
SMILES	Bead autofluor	Mtb hypoxia rep	Mtb hypoxia rep growth	Sa ugtP lethal	Sa RN4220 lethal	BJeLR lethal	PrP 5UTR inh
Cc1cc(NS(=O)(=O)c2ccccc2)c([N+](=O)[O-])cc1C	2006	/	/	/	/	5	3
COc1ccc(-n2cnnc2SCC(=O)Nc2cc(S(=O)(=O)N3CCCCC3)ccc2C)cc1	10175	9	-5	-3	8.0	-1	-22
CCOC(=O)N1CCN(C(=O)c2ccccc2NC(=O)c2ccc(OC)cc2)CC1	23728*	7	1	-2	0.6	-5	-9
COc1cccc(CN(C)C(=O)c2cccc(S(=O)(=O)N3CCN(c4ccccc4)CC3)c2)c1OC	2983	7	19	8	4.0	/	-7
CCc1cccc(CC)c1C(O)c1cccnc1 (configuration not stated)	2477	7	6	-3	5.1	0	-4
CC(C)(C)c1ccc(N/N=C(\C#N)S(=O)(=O)C(C)(C)C)cc1	4158	/	/	/	/	1	-38
O=C(c1ccc(=O)oc1)N1CCCc2ccccc21	2986	17	8	2	-13	-1	-14
O=C(O)c1cccc(CN2C(=O)S/C(=C/c3cccc([N+](=O)[O-])c3)C2=O)c1	3359	11	9	-2	11	-1	2
O=C(Nc1cccnc1Cl)c1cc(-c2ccc(Br)cc2)on1	3804	-7	-6	6	1.7	2	-23
CC(=O)Nc1ccc(C(=O)CSc2nnc(C)o2)cc1	2194	/	/	6	0.4	-4	-19
CC1CCN(C(=O)COC(=O)c2cc3ccccc3cc2O)CC1	4002	3	6	1	3.8	-3	-42
O=C(C[n+]1ccccc1)Nc1nc2ccccc2s1	8630	1	7	5	0.1	-7	-19
COc1ccc(OCCOC(=O)CNC(=O)c2ccc(Cl)cc2Cl)cc1	5404	-2	10	-3	-1.5	-10	-5
O=C(COC(=O)CCCNC(=O)c1ccc(Cl)cc1)NCc1ccccc1Cl	4909	/	/	1	-0.1	0	1
COc1ccc(-c2nsc(C(=O)N(c3ccc(F)cc3)C(C(=O)NC3CCCC3)c3ccc(OC)cc3)c2N)cc1 (configuration not stated)	23904*	-1	14	4	3.2	-2	-25
CC(C)(C)c1ccc(COC(=O)CNC(=O)CNC(=O)Cc2ccccc2)cc1	7819	2	1	2	2.6	-7	-7
COc1ccccc1NC(=O)CSc1nnnn1-c1ccc(C(=O)O)cc1	4510	0	14	-1	-2.4	3	-9
Cc1cc(N2CCN(C/C=C/c3ccccc3)CC2)n2ncnc2n1	10652	3	4	1	6.9	0	-23
CC(C)C[C@H](NC(=O)N1c2ccccc2NC(=O)[C@@H]1C(C)C)C(=O)N[C@@H](Cc1ccccc1)C(=O)O	5283	/	/	-2	-0.5	-1	-38
CC(C)c1nnc(NC(=O)c2cccnc2)s1	2529	12	11	4	4.8	6	-28
Cc1onc(-c2ccccc2)c1C(=O)Nc1nnc(CC(C)C)s1	5199	2	-1	10	2.8	-10	-12
CC(=O)c1cc(-c2ccccc2)n(CC(=O)NCc2cccs2)c1C	2373	/	/	0	0.4	-3	-14
CCCc1n[nH]c2c1C(=NO)CC(c1ccccc1)C2 (configuration not stated)	/	5	9	-2	9.2	/	/
CN1CCN(c2nc(-c3ccc(Cl)cc3)nc3ccccc23)CC1	3629	9	7	-4	-3.5	16	-5
CCN1CCN(c2ccc(NC(=O)c3cccnc3)cc2Cl)CC1	4074	3	-3	2	0.7	-15	-13
SMILES	Bead autofluor	Mtb hypoxia rep	Mtb hypoxia rep growth	Sa ugtP lethal	Sa RN4220 lethal	BJeLR lethal	PrP 5UTR inh
CC(C)(C)OC(=O)NCCCCCC(=O)NN=Cc1coc2ccccc2c1=O	/	1	-2	7	7.7	/	/
CCOC(=O)N1CCC(Nc2c(OCC)c(=O)c2=O)CC1	5884	3	3	15	1.6	-3	-21
COC(=O)c1cc(Cl)c(NS(=O)(=O)c2ccccc2)cc1OC	3772	/	/	2	1.0	-8	-24
CC(C)(C)CC(=O)Nc1ccc(Nc2ccccc2)cc1	3482	/	/	-5	-9.7	-2	-39
O=C(Cc1ccc(S(=O)(=O)N2CCOCC2)s1)N1CCN(S(=O)(=O)c2cccc(Cl)c2)CC1	?	-9	-7	-3	-0.4	12	3
CC1CCc2nc(NC(=O)c3ccco3)sc2C1 (configuration not stated)	3523	/	/	-11	-1.1	2	57*
Cc1cc(C)cc(-n2ccnc2SCC(=O)Nc2nccs2)c1	3646	/	/	4	5.0	2	-23
O=C1Cc2ccccc2C(=O)N1OCc1ccc(Cl)cc1	3434	4	5	-2	5.4	6	-8
CC(NC(=O)C12CC3(C)CC(C)(CC(C)(C3)C1)C2)C(=O)O (configuration not stated)	4851	6	2	1	7.5	-1	-18
O=C(c1ccccc1)N1CCN(C(=O)c2ccc3c(c2)OCCO3)CC1	4279	-6	8	-5	-3.7	-1	78*
O=S(=O)(Cc1noc(-c2ccc(OC(F)(F)F)cc2)n1)c1ccc(F)cc1	3541	-6	-7	-1	-3.7	-12	/
CCOC(=O)c1c(C)[nH]c(C(=O)OCC(=O)N(C)c2c(N)n(Cc3ccccc3)c(=O)[nH]c2=O)c1C	3593	0	2	0	0.7	/	-23
CCOC(=O)c1[nH]c(C)c(C(=O)Nc2ccc(C)cc2C)c1C	5988	/	/	7	6.2	21	-24
CCOC(=O)C1=C(COC(=O)c2ccc(C)c(S(=O)(=O)N3CCOCC3)c2)NC(=O)NC1C (configuration not stated)	6376	7	-2	11	6.6	/	-25

High-throughput results deposited in PubChem by several laboratories.
